# PKD1 inh = inhibitors of human PKD1 kinase; inhibition, %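 (about 10 µM by stock and volumes)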; Q15139; 0.056% of 200,000 active; PKD1 kinase fluorescence polarization assay;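 active = inhibition of 50% or more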;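 also: controls were vehicle for no effect and a reference inhibitor for full effect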
# Target sequence (Q15139 whole entry, looked up): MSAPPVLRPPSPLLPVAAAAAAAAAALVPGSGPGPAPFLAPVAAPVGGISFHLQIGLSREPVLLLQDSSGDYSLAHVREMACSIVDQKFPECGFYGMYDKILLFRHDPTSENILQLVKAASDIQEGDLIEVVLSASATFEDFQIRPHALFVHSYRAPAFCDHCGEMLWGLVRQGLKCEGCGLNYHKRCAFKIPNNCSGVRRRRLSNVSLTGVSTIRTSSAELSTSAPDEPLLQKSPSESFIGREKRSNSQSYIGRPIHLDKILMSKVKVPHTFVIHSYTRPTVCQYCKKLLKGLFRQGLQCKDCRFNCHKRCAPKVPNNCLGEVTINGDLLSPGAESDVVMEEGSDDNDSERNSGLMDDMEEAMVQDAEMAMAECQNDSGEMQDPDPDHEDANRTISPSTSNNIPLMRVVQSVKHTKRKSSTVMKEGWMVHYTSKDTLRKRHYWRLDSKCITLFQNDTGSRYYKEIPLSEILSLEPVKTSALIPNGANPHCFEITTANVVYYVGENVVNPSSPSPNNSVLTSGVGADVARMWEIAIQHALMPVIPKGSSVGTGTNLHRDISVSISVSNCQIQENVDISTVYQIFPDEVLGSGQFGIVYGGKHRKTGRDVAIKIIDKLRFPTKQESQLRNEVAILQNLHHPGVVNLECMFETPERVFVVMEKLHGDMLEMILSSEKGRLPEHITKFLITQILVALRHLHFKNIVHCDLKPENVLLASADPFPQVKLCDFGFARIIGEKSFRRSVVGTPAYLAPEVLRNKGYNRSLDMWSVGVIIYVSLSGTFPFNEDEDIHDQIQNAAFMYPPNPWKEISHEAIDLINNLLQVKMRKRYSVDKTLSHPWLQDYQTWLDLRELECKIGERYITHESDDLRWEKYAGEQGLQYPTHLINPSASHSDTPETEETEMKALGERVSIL
# GALR2 ag = activates the human galanin receptor 2 | O43603 | 0.48% of 140,000 active | GALR2-expressing cells, agonist activation read-out | activation, %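 (tested at 5 µM)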;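 active = above mean plus 3 SD of all compounds, about 5% in these data, not always enough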;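 also: 0% = vehicle buffer wells and 100% = reference agonist at full effect; tested in CHO reporter cells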
# HSV replic up = increases HSV replication in cells; HSV replication augmentation in cells, fold increase; maximum fold increase; 0.005% of 220,000 active; AID 1956;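 active = peak rise of 1.5-fold or more in the series; tested in PC3 cells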;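 also: first round at 10 µM; read as green reporter fluorescence; hits show the peak of a series up to 25 µM; 1 = signal of infected wells without compound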
# Insulin prom inh = TRM-6 insulin promoter activity inhibition; 0.9% of 130,000 active; TRM-6 cells (human fetal islet line), insulin promoter-eGFP reporter, imaging; reporter expression induced with tamoxifen; inhibition, % at 2 µM;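 active = inhibition above the mean plus 3 SD, with well images judged a real hit on visual review, cut at about 60% in these data, passing the limit was not always enough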
# RGS16-Gao HTS = regulators of human RGS16-Galphao interaction. bead-based flow cytometry RGS16-Galphao binding, fluorescence; actives lie on both sides. binding response (% of control), % at 10 µM. 0.38% of 220,000 active. AID 1441;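 active = below 25% or above 175%, edge rows of some plates excepted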;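 also: Galphao activated by GDP with aluminum fluoride before binding; 100% = wells without compound and 0% = beads without RGS; some results beyond the cut were filed as inactive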
# Insulin prom inh cell count = recorded beside Insulin prom inh, whose call it bears; normalized cell count, %; measured here: cell count, toxicity; reference of the scale not given here;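 cells exposed to compound for 48 h; stained nuclei by imaging scaled within each plate; lower means fewer cells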
# HSV replic up primary fold = recorded beside HSV replic up, whose call it bears; fold increase; compound at 10 µM; measured here: primary screen fold increase 10 uM; tested in PC3 cells;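 GFP signal in the first replicate; 1 = infected wells without compound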
# The depositor's hits bear a star; i = inactive; x = not tested or not shown.
SMILES,PKD1 inh,GALR2 ag,HSV replic up,HSV replic up primary fold,Insulin prom inh,Insulin prom inh cell count,RGS16-Gao HTS
CCOC(=O)c1cc(NC(=O)Nc2nccs2)c(C)nc1C,-2.5,-1.3,i,0.97,12.9,90.6,114.6
COc1ccc2c(c1OC)C(=O)OC2Nc1nc(-c2cc3cc([N+](=O)[O-])ccc3oc2=O)cs1 (stereo unspecified),3.7,0.3,i,0.97,x,x,104.6
CCCCCc1c(C)nc(SCC(=O)O)[nH]c1=O,4.4,-2.1,i,0.99,-30.6,141.7,102.1
COc1ccccc1N1CCN(Cc2c[nH]c3ccccc23)CC1,x,x,i,0.82,x,x,88.8
Cc1ccc([N+](=O)[O-])cc1S(=O)(=O)NCCc1c(C)[nH]c2ccccc12,-1.7,-1.0,i,0.8,38.9,114.9,113.6
O=C(CSc1nc(-c2cccs2)cc(C(F)(F)F)n1)NCc1ccccc1,1.6,-1.8,i,0.96,x,x,100.1
Cc1ccc(/C=N/N=C/c2ccc(C)s2)s1,-2.2,-1.1,i,1,3.3,118.2,105.9
COc1ccc2cc(CCNC(=O)CC(C)(C)C)c(=O)[nH]c2c1,7.8,1.3,i,1,-14.3,68.2,x
CCOC(=O)c1oc2cc(O)cc(C)c2c(=O)c1-c1cscn1,1.7,-0.4,i,1.08,44.4,132.7,105.5
CCOC(=O)Cc1csc(NC(=O)CCNS(=O)(=O)c2ccc3c(c2)CCC(=O)N3)n1,3.0,-0.5,i,0.9,x,x,98.5
C/C=C(\C)C(=O)NCCN1C2=NC[C@@H](C)N2C[C@H]1Cc1ccc(O)cc1,1.7,x,i,0.87,x,x,102.8
N#CNC1=NCN(Cc2ccccc2)CN1,-1.3,-3.2,i,0.86,x,x,102.7
CC(OC(=O)C1CCN(S(=O)(=O)c2ccccc2)CC1)C(=O)Nc1ncc(Cl)cc1Cl (stereo unspecified),-1.0,-0.7,i,1,x,x,91.8
COc1ccc(N2CCN(S(=O)(=O)c3ccc(-n4cnnn4)c(C)c3)CC2)cc1,-1.2,-1.8,x,x,23.1,110.6,106.5
CCCCOC(=O)c1[nH]c2c(c1C)C(=O)CC(c1cc(OC)c(OC)c(OC)c1)C2 (stereo unspecified),-9.3,0.7,i,0.89,57.1,158.8,101.5
CC1(C)CCCN(Cc2c(O)ccc3c(=O)c(-c4nc5ccccc5s4)c(N)oc23)C1,x,x,i,0.77,x,x,100.2
Cc1[nH]c2ccccc2c1/C=N/NC(=O)Nc1ccccc1,2.8,x,i,0.86,x,x,103.0
Cc1cc(C)n(-c2nnc(Cl)c3ccccc23)n1,3.7,x,i,0.89,x,x,102.7
CCCC(=O)N(C)c1nnc(-c2ccc(OC)cc2)s1,-3.3,-2.4,i,0.997,-169.8,63.9,105.9
COc1cccc(C(=O)N2N=C(c3cccc(OC)c3)CC2(O)C(F)(F)F)c1 (stereo unspecified),1.5,-1.2,i,0.82,-3.3,110.6,108.0
CCOC(=O)N1CCN(C(=O)CCNS(=O)(=O)c2cc(Br)cnc2N)CC1,-0.2,-1.0,i,1.02,-28.6,81.4,92.1
O=C(Nc1ccc(S(=O)(=O)N2CCCCC2)cc1)c1ccccc1Cl,-5.5,-1.7,i,0.75,-4.1,44.1,92.0
COc1ccc(-c2nnc(SCC(=O)NCCc3ccccc3)o2)cc1,2.6,-1.2,i,0.75,50.0,115.2,99.7
CC(=O)c1ccc(NC(=O)C(C)NCc2ccccc2Cl)cc1 (stereo unspecified),-3.7,x,i,1.03,-109.1,93.6,111.9
FC(F)(F)c1cccc(-c2ccn3ncnc3n2)c1,-7.2,x,i,0.85,x,x,102.4
# The list goes on.
SMILES,PKD1 inh,GALR2 ag,HSV replic up,HSV replic up primary fold,Insulin prom inh,Insulin prom inh cell count,RGS16-Gao HTS
COCCOC(=O)C1=C(C)Nc2cc(=O)[nH]c(=O)n2C1c1cccc([N+](=O)[O-])c1 (stereo unspecified),1.9,-1.8,i,1.04,38.5,46.5,112.5
CCCNc1nc2c(c(=O)n(C)c(=O)n2C)n1Cc1ccc(F)cc1,-11.6,-2.2,i,0.97,x,x,93.3
CCO[C@H]1OC(C(=O)N2CCN(Cc3ccc4c(c3)OCO4)CC2)=C[C@@H](C(C)(C)C)[C@@H]1CCCO,-0.9,x,i,0.94,x,x,94.7
O=C(/C=C/c1ccccc1)N1CCN(S(=O)(=O)c2ccc(F)cc2)CC1,-4.4,x,i,0.99,x,x,113.3
S=c1nccc(-c2cc(Cl)sc2Cl)[nH]1,-12.4,-0.6,i,0.81,-31.7,100.0,109.0
Cc1noc2ncnc(Oc3ccc4ccccc4c3)c12,1.4,-2.5,x,x,20.0,112.7,100.3
CCOC(=O)NC(=O)c1cn(Nc2ncc(Cl)cc2C(F)(F)F)c(=O)[nH]c1=O,x,x,i,1.03,x,x,103.9
O=C(CSc1cccc[n+]1[O-])c1cccs1,4.7,x,i,1.03,x,x,99.2
CCC(Cc1ccccc1)NC(=O)CN(C)S(=O)(=O)c1ccc2c(c1)c(=O)n(C)c(=O)n2C (stereo unspecified),-7.6,-2.4,i,0.82,x,x,100.9
Cc1c(C(=O)NCc2ccc3c(c2)OCO3)oc2ccc(S(=O)(=O)N3CCCC3)cc12,-0.8,0.4,i,0.87,15.6,89.8,102.5
Cc1nc2c(c(C)nn2-c2ccccc2)c(C)c1Cl,-6.0,-3.0,i,0.99,x,x,101.7
COC(=O)c1ccc(OCC(O)CN(CCO)CCO)cc1 (stereo unspecified),-14.6,0.5,i,0.95,x,x,83.9
O=[N+]([O-])c1ccc(N2CCCC2)cc1N1CCCC1,-6.6,-2.5,i,0.8,-10.0,111.7,104.5
CCCCOc1ccccc1NC(=O)c1ccc(=O)[nH]c1,-12.5,-1.6,i,0.92,-42.5,45.8,86.1
CC(C)C/C=C1\CCc2c([nH]c3ccccc23)C1=O,5.4,x,i,0.9,x,x,94.9
Cc1cc(C)nc(N2CCC(C(=O)Nc3ccc(Oc4ccccc4)cc3)CC2)n1,-1.8,1.4,i,1.23,-39.5,139.1,82.0
CCOC(=O)C1C(=O)C=C(c2cccc(NS(C)(=O)=O)c2)CC1c1ccco1 (stereo unspecified),-5.1,-0.6,i,0.98,18.8,156.2,92.7
CC(=O)Oc1ccc(C(c2ccc(OC(C)=O)cc2)c2ccccn2)cc1,-3.1,-1.2,i,0.7,-9.1,87.8,50.1
C=CCn1c(COc2ccc(CC)cc2)nnc1SCC(=O)N(C)C1CCS(=O)(=O)C1 (stereo unspecified),-26.2,0.0,i,1.03,7.1,117.6,91.3
CN(C)CCN1C(=O)C2C3C=CC(C3)C2C1=O (stereo unspecified),0.1,x,i,0.99,-6.2,121.3,104.0
Cc1[nH]c2ccccc2c1C(=O)CSc1nc2ncc(Cl)cc2[nH]1,-1.6,x,i,0.82,x,x,101.0
COc1ccc(CNC(=O)CNS(=O)(=O)c2ccc(Cl)cc2)cc1,-12.9,-0.5,i,1,-61.5,123.4,107.5
Cc1c(-c2ccccc2)[nH]n2c(=O)c3c(nc12)CCCC3,-7.1,0.0,i,0.72,x,x,102.1
O=S(=O)(c1ccc(F)cc1)N1CCC(N2CCCC2)CC1,-7.3,-1.8,i,0.87,x,x,109.0
Cc1cccc(NC(=O)c2n[nH]c([N+](=O)[O-])c2Br)c1C,-23.0,x,i,0.87,x,x,103.5

# Quoted at random: 6 records from the list, in no set order.
SMILES,PKD1 inh,GALR2 ag,HSV replic up,HSV replic up primary fold,Insulin prom inh,Insulin prom inh cell count,RGS16-Gao HTS
Cc1[nH]c2ccccc2c1C(=O)CSc1nc2ncc(Cl)cc2[nH]1,-1.6,x,i,0.82,x,x,101.0
CCOC(=O)NC(=O)c1cn(Nc2ncc(Cl)cc2C(F)(F)F)c(=O)[nH]c1=O,x,x,i,1.03,x,x,103.9
Cc1cc(C)nc(N2CCC(C(=O)Nc3ccc(Oc4ccccc4)cc3)CC2)n1,-1.8,1.4,i,1.23,-39.5,139.1,82.0
CC(=O)Oc1ccc(C(c2ccc(OC(C)=O)cc2)c2ccccn2)cc1,-3.1,-1.2,i,0.7,-9.1,87.8,50.1
CCC(Cc1ccccc1)NC(=O)CN(C)S(=O)(=O)c1ccc2c(c1)c(=O)n(C)c(=O)n2C (stereo unspecified),-7.6,-2.4,i,0.82,x,x,100.9
COc1ccc(CNC(=O)CNS(=O)(=O)c2ccc(Cl)cc2)cc1,-12.9,-0.5,i,1,-61.5,123.4,107.5

# Continuation.
SMILES,PKD1 inh,GALR2 ag,HSV replic up,HSV replic up primary fold,Insulin prom inh,Insulin prom inh cell count,RGS16-Gao HTS
CC1CCN(S(=O)(=O)c2ccc(NC(=O)Cn3nnc(-c4ccccc4)n3)cc2)CC1,-1.2,3.5,i,0.84,23.5,73.4,92.9
Cn1cccc1Cc1nnc(SCC(N)=O)n1-c1ccc(F)cc1,6.9,-2.9,i,1.06,x,x,107.8
CCc1ccccc1N/C(=N\S(=O)(=O)c1ccccc1)C(F)(F)F,-5.6,0.0,i,1.13,-20.5,125.3,96.6
Cc1ccc(NC(=O)CS(=O)CC(=O)Nc2ccc3c(c2)OCO3)cc1Cl (stereo unspecified),10.2,-2.5,i,0.89,x,x,13.3
CN1CCN(S(=O)(=O)c2ccc(Sc3nc4ccccc4[nH]3)c3nsnc23)CC1,-5.7,-0.1,i,1.14,18.9,151.3,98.1
CCOC(=O)c1cnn(CCOC(=O)c2ccc(F)cc2)c1NC(=O)c1ccc(F)cc1,3.5,-0.8,i,0.99,43.8,102.1,111.5
Cc1cccc(N2CCN(S(=O)(=O)c3cccc4nonc34)CC2)c1C,4.0,-1.9,i,1.06,x,x,102.0
COC(=O)CNC(=O)C1CCCN1C(=O)CNC(=O)OC(C)(C)C (stereo unspecified),-7.0,-4.6,i,0.92,28.6,66.5,100.0
CCOc1ccc(C(=O)c2cnc3ccccc3c2N2CCN(CC)CC2)cc1,-1.9,x,i,0.905,x,x,92.8
CC(C)NC(=O)C1CCCN(S(=O)(=O)c2cccs2)C1 (stereo unspecified),-7.6,0.3,i,1.02,-9.1,82.5,107.2
O=C1CC(N2CCN(c3ccc(O)cc3)CC2)C(=O)N1Cc1cccs1 (stereo unspecified),-11.8,-0.9,i,0.69,30.9,235.7,100.8
COc1ccc(N2CCN(C(c3ccccc3OC)c3nnnn3Cc3ccco3)CC2)cc1 (stereo unspecified),9.9,-3.1,i,0.99,x,x,102.2
Cc1ccsc1-c1nc(CSCC(=O)NCCN2CCCC2)c(C)o1,-6.6,-0.5,i,0.93,x,x,97.7
CCN1CCN(CCNC(=O)c2ccc(/C=C3/Sc4ccccc4N(Cc4cccc(C)c4)C3=O)cc2)CC1,-2.9,x,i,0.59,x,x,106.2
N#Cc1ccc(CSc2nnc(-c3ccncc3)o2)cc1,-0.9,x,i,0.91,x,x,79.8
COc1ccc(CC(=O)Nc2ccc(C(=O)Nc3ccccc3C(=O)O)cc2)cc1OC,-0.7,0.5,i,0.97,34.6,163.2,104.4
Cn1c(=O)[nH]c(=O)c2c1nc(N1CCCCCC1)n2CCSc1nc2ccccc2o1,9.7,x,x,x,x,x,92.5
COc1cc(NC(=O)c2ccco2)c(C(=O)OCC(=O)Nc2ncc(Cl)cc2Cl)cc1OC,0.6,-4.1,i,1.12,2.9,54.6,106.2
O=C(COC(=O)/C=C/c1ccccc1Cl)NCc1ccco1,3.0,x,i,1.15,x,x,109.8
CCn1cc(Br)c(C(=O)Nc2ccc(Cl)cc2Cl)n1,-7.5,-2.9,i,0.66,-33.3,101.6,100.8
COC(=O)c1ccc(Cn2nc(C)c([N+](=O)[O-])c2C)o1,4.5,x,i,0.95,-7.7,109.1,96.5
CC(C)(C)N1CCC1CN (stereo unspecified),x,x,i,0.98,x,x,98.6
N#Cc1ccccc1NC(=O)COC(=O)CCc1ccc(S(=O)(=O)N2CCCCC2)cc1,-11.2,-1.3,i,0.93,x,x,59.0
CCN(CC)CCCNC(=O)c1[nH]c(C)c(C(=O)NC2CCCCC2)c1C,-6.3,-0.1,i,0.8,21.9,99.1,105.6
COc1ccccc1CC(=O)Nc1ccc2c(c1)C(=O)NC2=O,8.8,x,i,0.9,x,x,96.7
COCc1cc(C)nc(SCC[N+](C)(C)CC(=O)c2ccccc2)c1C#N,-1.6,x,i,1.01,-7.1,100.4,88.8
CC(=O)c1c(C)[nH]c(C(=O)Nc2ccc(C)c(C)c2)c1C,4.6,-2.0,i,0.99,x,x,101.0
COc1ccc(-n2c(C)cc(/C=C3\C(=O)NN(c4ccccc4)C3=O)c2C)cc1,11.8,0.1,i,1.02,-193.3,110.5,97.7
CCOC(=O)c1c(C2COc3ccccc3O2)csc1NC(=O)c1ccccc1 (stereo unspecified),-10.1,-1.6,i,0.81,x,x,99.6

# Bioassay records from PubChem.
